PK Bst: alters activity of Bacillus stearothermophilus pyruvate kinase; 1.2% of 51,000 active; partly purified Bacillus stearothermophilus pyruvate kinase, luminescence ATP production; ribose 5-phosphate activator present at AC10; Potency, µM; in the data active means potency below about 11 µM; inconclusive means mostly about 12 µM to 25 µM; inactive means weaker than that;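 the screen sought inhibitors and activators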;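 also: scaled between full activation by ribose 5 phosphate and full inhibition by luteolin; about four in five hits inhibit and the cells do not say which; series up to 57 µM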
* = called active by the depositor; & = joins results of further samples. Potency is read from the fitted curve at half-maximal effect.

SMILES	PK Bst
CC[C@@H]1C(=O)OC[C@@H]1Cc1cncn1C	>26&>26

Some of the compounds tested; rates above refer to the full screens.
